Source: PubChem
AID504770: growth inhibitors of E. coli YBA685 in a screen for V. cholerae RctB (chromosome II replication) inhibitors. AID 504770. E. coli YBA685 rctB-dependent plasmid, OD600 growth, 3 h; hits give low values. z-score (test concentration not listed). 130,000 compounds, 0.27% hits;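 active = z-score under -2 on both plates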;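 also: wells of about 30 µL received 100 nL stock; score is relative to mean and SD of the test wells; the first replicate is given; strong numbers were not always called active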
CapD inh: CapD enzyme inhibition. purified CapD enzyme, fluorescence intensity read-out; hits give low values; some hits fall short of the stated cut. z-score (concentration not given with the values). 140,000 compounds, 0.23% hits;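 active = z-score under -4 in either of two replicates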;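 also: stock transfer was 100 nL into about 40 µL; score is relative to mean and spread of the plate; one replicate is shown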
* marks the source's active call; other numbers are inactive results; . = not tested or not shown. The list is partial, so the mix of outcomes need not match the whole.

smiles	AID504770	CapD inh
Cc1ccc2nc3sc(C(N)=O)c(N)c3cc2c1	-0.4	.
COc1cc(OC)nc(C2CCCCC2C(=O)NCCN2CCOCC2)n1 (centres undefined)	.	0.32
Cc1cc2occ(CC(=O)OCc3c(F)c(F)c(F)c(F)c3F)c2cc1C	1.15	.
Cc1ccc2c(N)c(C(=O)c3ccc(Cl)cc3)sc2n1	1.8	-0.505
CC(C)c1ncc(S(=O)(=O)c2ccc(C(F)(F)F)cn2)c(N)n1	0.05	-0.435
COc1ccc(C2C(C(=O)Nc3nc4ccccc4s3)=C(C)NC3=C2C(=O)CCC3)c(OC)c1 (centres undefined)	.	34
Cc1nc(-c2ccccc2)ccc1C(=O)O	-0.35	.
Cc1ccnc(Cl)c1N	1.45	.
Clc1ccc(-c2cc(-c3nc(-c4ccncc4)no3)c3ccccc3n2)cc1	.	0.5
COC(=O)Cn1c(=O)n(-c2ccccc2)c(=O)n1CC(=O)OC	-0.3	-0.72
Cc1ccc(CSc2n[nH]c(=O)n2-c2cccc(Cl)c2)cc1	-0.35	0.73
CCOC(=O)c1c(C)nc2c1cc(O)c1c2c(-c2ccccc2)[nH]n1-c1ccccc1	.	44.6
CCCCOc1nc(N2CCOCC2)nc(N2CCOCC2)n1	.	0.98
CN1C(=O)N(C)C2(CC1(C)C)CC(C)(C)N(C)C(=O)N2C	1.45	.
COc1ccc(N2CCN(C(=O)/C=C/c3ccccc3)CC2)cc1	-0.1	.
FC(F)(F)c1ccc(Oc2ccc(Br)cc2)nc1	-0.6	-0.24
CCOCC(O)CSc1nc(C)cc(C)n1 (centres undefined)	0.15	-0.115
COc1ccccc1NC(=O)O/N=C(\N)c1ccccc1	1.4	.
Cc1nc(NC(=O)C2CC2c2ccc(C(C)(C)C)cc2)sc1C(=O)N(C)C (centres undefined)	1.85	-0.095
O=C(CSc1ncn[nH]1)Nc1cccc(Br)c1	-0.55	0.155
COc1cc(/C=C2/N=C(c3ccc(Br)cc3)OC2=O)cc(OC)c1OC	.	0.595
CC1CCC(C(C)C)C(OC(=O)CSc2nnc(N)s2)C1 (centres undefined)	0.55	.
O=C(Nc1ccccn1)C(=NO)C(=O)Nc1ccccn1	1.55	.
COc1cccc(CCOC(=O)NNC(=O)c2csc(-c3ccccc3)n2)c1	.	-1.18
CCOC(=O)N1CCN(S(=O)(=O)c2ccc(OC)c(C(=O)N3CCCCC3)c2)CC1	-0.7	.
COc1ccc(C(=O)Oc2c(Cl)cc(C=C3C(=O)NC(=O)NC3=O)cc2OC)cc1	.	0.165
O=C(CSc1ncccn1)N(c1ccccc1)C1CCS(=O)(=O)C1 (centres undefined)	-0.1	.
CCCCCCCCc1ccc(-c2ccc(C(=O)Nc3nc4ccccc4n3C)cc2)cc1	.	1.23
N/C(CSc1nc(-c2ccccc2)c(-c2ccccc2)o1)=N\O	-0.25	0.985
O=C(c1ccc(Br)cc1)C(C(=O)N1CCCCC1)n1ccccc1=O (centres undefined)	-0.8	-0.515
Cc1ccc(N2CCN(c3ccc(C)cc3)C2c2cc(Cl)cc(Cl)c2O)cc1	.	-0.24
CN1CCC2(CC1)Oc1ccccc1C1CC(c3ccccc3)=NN12 (centres undefined)	-0.1	.
COc1ccc2c(c1)=C(c1sc(NS(=O)(=O)c3ccc(C)cc3)nc1O)C(=O)N=2	.	-0.975
CCOc1ccccc1NC(=O)NC1Cc2ccccc2C1	.	0.08
Cc1ccc2[nH]c(-c3ccccc3)c(CN3CCCC3)c(=O)c2c1	-0.6	-0.365
COc1cc(-c2nc(NCc3ccc(F)cc3)c3ccccc3n2)cc(OC)c1OC	.	22.8
CCNC(=S)N1CCN(c2ccccc2)CC1	-0.85	.
N#CC(C#N)=NNc1cc(-c2ccccc2)[nH]n1	-0.35	2.18
CN(CCc1cn[nH]c1)Cc1nc(-c2ccc(C(F)(F)F)cc2)no1	1.05	.
Cc1ccc(-n2nc(-c3cccs3)cc2C(=O)NCC2CCCO2)c(C)c1 (centres undefined)	-0.2	.
Cc1nnsc1C(=O)Oc1ccccc1N1CCCCC1	-1.15	1.2
Cc1c(C(=O)/C(C#N)=C/N(C)C)sc2ccc(Cl)cc12	-0.25	-1.04
CCN(C(=O)Cn1cc(C(F)(F)F)ccc1=O)C1CCS(=O)(=O)C1 (centres undefined)	-0.25	.
Cc1ccc(/C=C/C(=O)N2CCN(C(c3ccccc3)c3ccccc3)CC2)o1	-0.75	-0.515
O=C1NS(=O)(=O)c2ccc(Cl)cc2Sc2ccccc21	0.25	-0.065
CC(C)(C)C(=O)C(C#N)=C1SCCS1	-0.55	-2.26
COc1ccc(C2CC(=O)C3=C(C2)Nc2ccccc2NC3c2cc(Br)ccc2OC)cc1OC (centres undefined)	.	-1.02
O=C(CN1C(=O)c2ccccc2S1(=O)=O)c1ccc(Cl)cc1	0.45	0.98
CS(=O)(=O)c1ccc2nc(NC(=O)c3ccc(S(=O)(=O)N4CCc5ccccc54)cc3)sc2c1	.	-0.195
CCOc1ccc(-n2c(SCC(=O)NCc3ccco3)nc3n[nH]c(C)c3c2=N)cc1	-0.55	6.91
CCCN(Cc1ccc(OC)c(C)c1OC)CC1CC1	-0.6	0.23
O=C1CCC(=O)N1Nc1nc2ccccc2c2nc(-c3ccccc3)nn12	-0.9	-0.335
CCN(CC)S(=O)(=O)c1ccc(C(=O)Nc2c3c(nn2-c2cccc(C)c2C)CS(=O)(=O)C3)cc1	.	0
CCOC(=O)c1sc2ncn(CC(=O)N3CCCCC3C)c(=O)c2c1C (centres undefined)	.	-0.295
CC1(C)COC(/C=C(\N)c2ccc(Br)cc2)=N1	-0.7	-2.1
Cc1nc2ccc(I)cn2c1/C=N/NCCC#N	-0.3	.
O=C(Nc1ccc(S(=O)(=O)Nc2nccs2)cc1)N1c2ccccc2Sc2ccccc21	-0.45	-0.205
CC(C)C(=O)Nc1cccc(-c2nc3ccccc3c(=O)o2)c1	-3.5*	1.16
COc1ccccc1CC(NC(C)=O)C(=O)N1CCN(C(=O)c2cccs2)CC1 (centres undefined)	-0.6	.
CCOc1cc(Br)c(Br)c(/C=C2\SC(=S)N(CC(=O)O)C2=O)c1O	.	-3.85*

Overlap with the part before: six entries, followed by the next part.
Structure | AID504770 | CapD inh
CC1(C)COC(/C=C(\N)c2ccc(Br)cc2)=N1 | -0.7 | -2.1
Cc1nc2ccc(I)cn2c1/C=N/NCCC#N | -0.3 | .
O=C(Nc1ccc(S(=O)(=O)Nc2nccs2)cc1)N1c2ccccc2Sc2ccccc21 | -0.45 | -0.205
CC(C)C(=O)Nc1cccc(-c2nc3ccccc3c(=O)o2)c1 | -3.5* | 1.16
COc1ccccc1CC(NC(C)=O)C(=O)N1CCN(C(=O)c2cccs2)CC1 (centres undefined) | -0.6 | .
CCOc1cc(Br)c(Br)c(/C=C2\SC(=S)N(CC(=O)O)C2=O)c1O | . | -3.85*
COc1cc(NC(=O)CC(CC(=O)O)c2ccccc2)c(C(=O)O)cc1OC (centres undefined) | 1.2 | -0.89
CCNC(=S)N1CCCC(C(N)=O)C1 (centres undefined) | 0.8 | 0.475
S=C(NCCc1ccccn1)NN1C2CSC1CS2 | 0.25 | 0.56
COc1ccc(N=Cc2c(O)n(C)c(=O)[nH]c2=O)cc1 | 1.85 | -0.05
N#Cc1cccnc1Oc1ccc(Cl)cc1Cl | 0.4 | 0.29
Cc1cccc(OCC(=O)N2CCc3ccccc32)c1 | 0.1 | .
C=CCN1C(=O)/C(=C\c2ccc(OC(=O)c3ccco3)c(OC)c2)SC1=S | -0.6 | 0.145
COc1ccc(CCC(=O)Nc2ccc(/C(N)=N/O)cc2)cc1 | 1.55 | 0.04
Cc1cc(C)nc(NS(=O)(=O)c2ccc(NC(=O)/C=C/c3ccc(F)cc3)cc2)n1 | . | -0.25
O=C(OCC(=O)N(C1CCCCC1)C1CCCCC1)c1ccc(N2CCCC2=O)cc1 | 1.3 | .
CC(C)n1c2ccccc2c2n[nH]c(=S)nc21 | -0.55 | -0.27
O=C(NCCSc1c[nH]c2ccccc12)c1ccco1 | -0.65 | -0.22
COC(=O)C1C(=O)NC(SCC(=O)Nc2ccc(Br)cc2)=C(C#N)C1c1ccccc1[N+](=O)[O-] (centres undefined) | . | -0.43
O=C(CSc1nnnn1-c1ccc(O)cc1)c1c[nH]c(C(=O)N2CCCC2)c1 | -0.65 | .
Cc1nc(C)c(-c2ccn(C(=O)C(C)(C)C)n2)s1 | . | 0.295
O=C1NCCN1CCN1C(=O)c2ccccc2NC1c1cccs1 (centres undefined) | -1.05 | 112
O=C(N1CCN(c2ccccc2)CC1)C(F)(F)F | -0.8 | -0.16
CCc1ccc(NC(=S)N(Cc2cccs2)C2CCCC2)cc1 | . | 0.21
CC(C)NC(=O)CSc1nnc(-c2cccs2)n1C | 0.6 | .
CCN(CC)S(=O)(=O)c1ccc(Nc2ncnc3c2nc2n3CCCCC2)cc1 | 0.95 | 0.925
O=C(CSc1ccccn1)Nc1ccccc1Sc1nccc(C(F)(F)F)n1 | -0.3 | -0.835
COc1ccc(Cc2nc3c4c5c(sc4ncn3n2)CCCCC5)cc1OC | . | -0.635
CC(C)Cn1c(SCc2ccccc2C#N)nnc1-c1ccccc1F | -0.5 | .
O=C1c2ccccc2C(=O)N1N=C1CCCCC1 | -0.5 | -0.415

Profiles from above. Values in the order: AID504770 | CapD inh
Listed for `O=C(Nc1ccccn1)C(=NO)C(=O)Nc1ccccn1` = 1.55 | .
Listed for `CN1C(=O)N(C)C2(CC1(C)C)CC(C)(C)N(C)C(=O)N2C` = 1.45 | .
Listed for `COc1cc(OC)nc(C2CCCCC2C(=O)NCCN2CCOCC2)n1` (centres undefined) = . | 0.32
Listed for `O=C(CSc1nnnn1-c1ccc(O)cc1)c1c[nH]c(C(=O)N2CCCC2)c1` = -0.65 | .

(cont.)
Structure | AID504770 | CapD inh
C/C=C/NC(=O)c1nc2c(nnn2Cc2ccc(C)cc2)c(=O)[nH]1 | -0.3 | .
CCN(CC)CCN1C2=NCCN2c2ccccc21 | . | -0.115
O=C(O)C(Cc1ccccc1)N1C(=O)/C(=C\c2ccco2)SC1=S (centres undefined) | -0.15 | .
Cc1cc(NNS(=O)(=O)c2ccc(CCC(=O)O)cc2)n2ncnc2n1 | 1.2 | .
COCCn1ccc2nc(SC)ncc2c1=O | 1.2 | 9.19
COC(=O)c1c(NC(=O)Cn2nc(C)c([N+](=O)[O-])c2C)sc2c1CCC(C(C)(C)C)C2 (centres undefined) | . | -0.045
COC(=O)C(O)(NC(=O)c1ccccc1)C(F)(F)F (centres undefined) | -0.6 | 0.45
O=C(CN(c1cccc([N+](=O)[O-])c1)S(=O)(=O)c1ccccc1)N(Cc1ccccc1)Cc1ccccc1 | . | 0.55
CC1(C)CC(=O)C2=C(C1)OC(N)=C(C#N)C2c1ccc(OC(=O)c2ccccc2Cl)cc1 (centres undefined) | . | -0.33
CCOC(=O)c1c(C)n(C)c2c1cc(OC(=O)c1ccccc1Br)c1ccccc12 | . | -0.055
N#CC1(C#N)[C@H](c2ccccc2F)[C@@H](C(=O)c2ccccc2)N2c3ccc(F)cc3C=C[C@@H]21 | . | 6.17
CCN1CCO/C1=C\C=C\C1=[N+](CC)CCO1 | 0.8 | -3.21
Cc1ccc(NC(=O)N2CCCc3ccccc32)cc1 | . | 0.29
CS(=O)(=O)N1CCCc2cc(C(=O)Cn3cc(C(F)(F)F)ccc3=O)ccc21 | -0.9 | .
O=C(NNC(=O)c1cccc2ccccc12)OCCc1ccccc1F | . | 0.69
COc1cc2ccccc2cc1C(=O)OCC(=O)N1CCc2ccccc2C1 | -0.55 | 90.5
CC(=Nc1ccc(C)cc1)c1ccc(O)cc1O | -0.3 | .
CN1CCN(c2ccc(Cl)cc2NC(=O)c2ccc(Cl)c(Cl)c2)CC1 | . | -0.615
Cc1ccn2cc(-c3ccccc3)nc2c1 | -0.95 | 85.1
CCOC(=O)C1CCCc2sc(N)c(C#N)c21 (centres undefined) | 0.85 | 0.38
CCOC(=O)c1ccc(NC(=O)c2sc(NC(=O)COc3ccc(Cl)cc3)c(C(=O)OCC)c2C)cc1 | . | 5.78
CCN(CC)S(=O)(=O)c1cc(-c2cc(C(=O)N3CCc4ccccc43)no2)ccc1OC | -0.05 | 0.68
CC(C)CC(=O)Nc1ccc(-c2csc(CC#N)n2)cc1 | 1.3 | .
COc1ccc(C(=O)/C=C2\N/C(=N\S(=O)(=O)c3ccc(N)cc3)NC2=O)cc1 | -0.1 | 0.105
FC(F)(F)C1=Nc2cccc3cccc(c23)N1 | . | -1.05
O=C(NCCS(=O)(=O)Cc1ccc(F)cc1)c1ccc(Cl)cc1 | 0 | 0.375
Cc1nc(-c2cccc(NC(=O)CN3CCCC3c3cccs3)c2)cs1 (centres undefined) | -0.4 | .
COc1cc(OC)c(OC)cc1C=O | 1.75 | .
Cc1ccc2nc(CN3CCc4sccc4C3c3cccs3)cn2c1 (centres undefined) | -0.3 | .
COC(=O)c1[nH]c2c(c1C)C(=O)CC(c1ccc(OC)cc1)C2 (centres undefined) | 0.3 | 0.535
CCNC(=O)Nc1cccc2c1N(C(C)=O)CC2 | . | -0.61
CC(C)(C)c1ccc(OCCCC(=O)Nc2ccc3c(c2)OCCO3)cc1 | . | 0.13
